CRFR2-BP antag: antagonists of CRF-BP/CRF-R2 complex, primary screen, cell-based, HEK293, calcium dye fluorescence, uHTS; CRF-induced calcium fluorescence; inhibition, % at 11.8 µM; 350,000 compounds, 0.59% hits;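 active = inhibition of the ligand-induced calcium signal above about 50% at the single tested concentration, limit read from the data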
TAAR1 antagonist: human TAAR1 antagonists, primary screen, Fluo-8 calcium fluorescence, CHO RD-HGA16 cells | 360,000 compounds, 1.5% hits | antagonist | inhibition, % at 3 µM | Trace amine-associated receptor 1 (Homo sapiens), Q96RJ0;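 active = inhibition above a per-plate cutoff, the mean inhibition of test compounds on that plate plus 3 SD, cut at about 49% in these data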;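 note: 0% = DMSO plus EC80 beta-PEA response and 100% = DMSO alone without agonist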
Target sequence (Q96RJ0 whole entry, looked up): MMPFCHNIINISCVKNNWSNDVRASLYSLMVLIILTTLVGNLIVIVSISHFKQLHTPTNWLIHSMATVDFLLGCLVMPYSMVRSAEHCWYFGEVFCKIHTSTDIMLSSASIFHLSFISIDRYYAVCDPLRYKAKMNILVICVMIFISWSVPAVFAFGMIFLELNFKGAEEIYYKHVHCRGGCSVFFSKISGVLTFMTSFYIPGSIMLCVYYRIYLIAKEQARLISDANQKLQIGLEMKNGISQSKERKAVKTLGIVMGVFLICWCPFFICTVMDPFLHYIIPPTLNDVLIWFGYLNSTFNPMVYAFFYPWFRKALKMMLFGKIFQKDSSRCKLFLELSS
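Assay system: CHO-derived RD-HGA16 cells stably expressing human TAAR1 plus Gα16. Timing: 140 s kinetic read after compound, 140 s after agonist. Technique: kinetic Fluo-8 calcium fluorescence measurement. Measure: % inhibition of agonist calcium response.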
An asterisk follows results filed as active; i = inactive. A portion of the library; most or all hits stand in other tables.

SMILES	CRFR2-BP antag	TAAR1 antagonist
CN1CCN2c3ccccc3Cc3ccccc3C2C1 (stereo not given)	-9.9	4.9
CCN(CC)CCOc1ccc(/C(=C(\Cl)c2ccccc2)c2ccccc2)cc1	4.0	15.7
Clc1ccc2c(c1)C(N1CCNCC1)=Nc1ccccc1O2	2.0	-12.2
CNCC[C@H](Oc1ccc(C(F)(F)F)cc1)c1ccccc1	i	-0.7
O=C(CCCN1CCC(O)(c2ccc(Cl)cc2)CC1)c1ccc(F)cc1	i	4.0
CCCCc1nc(Cl)c(CO)n1Cc1ccc(-c2ccccc2-c2nn[nH]n2)cc1	-0.9	-15.2
COc1ccc(OC)c(C(O)CNC(=O)CN)c1 (stereo not given)	-29.1	-28.6
CN1CCN(C2=Nc3cc(Cl)ccc3Nc3ccccc32)CC1	4.0	-9.5

By substructure, the entries above containing a Cl atom.
SMILES	CRFR2-BP antag	TAAR1 antagonist
CCN(CC)CCOc1ccc(/C(=C(\Cl)c2ccccc2)c2ccccc2)cc1	4.0	15.7
Clc1ccc2c(c1)C(N1CCNCC1)=Nc1ccccc1O2	2.0	-12.2
O=C(CCCN1CCC(O)(c2ccc(Cl)cc2)CC1)c1ccc(F)cc1	i	4.0
CCCCc1nc(Cl)c(CO)n1Cc1ccc(-c2ccccc2-c2nn[nH]n2)cc1	-0.9	-15.2
CN1CCN(C2=Nc3cc(Cl)ccc3Nc3ccccc32)CC1	4.0	-9.5

Bioassay records: PubChem, several laboratories
